Screening data from PubChem.
miR-21 reporter: miR-21 reporter, rising signal. HeLa miR-21 FLuc reporter, luciferase, 48 h. Potency, µM (highest dose often 38.3 µM), for the others: at the highest dose reporter change, positive = more light. 340,000 tested, under 10 active; active = well fitted rising curve with a large enough effect; inconclusive = small, poorly fitted or top-dose-only effect; inactive = no such curve, though single readings can be large or run the other way;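 further: % of control where 0% means no effect; miR-21 action dims this reporter so a rising signal means less miR-21 action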
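HeLa cells stably expressing CMV-driven firefly luciferase with a downstream miR-21 binding sequence, endogenously expressing miR-21, were treated with titrations (up to about 40uM final) for 48 hours at 37 degree Celsius. Luciferase luminescence was read after lysis.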
Rango-impB inh: prevents formation of the Rango-importin beta complex; Rango CFP/YFP FRET sensor + importin beta, 45 min; Q14974; 340,000 compounds, 0.031% hits; Potency, µM (series often up to 92.2 µM), inactives show top-dose inhibition of complex formation; AID 540263; active = rising FRET ratio curve, often small or poorly fitted; inconclusive = mostly compound fluorescence or quenching in the first reads; inactive = flat curves in all reads;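 further: potency means the concentration at half of the fitted maximal effect; 0% = DMSO wells and 100% = buffer wells lacking importin beta; nearly all actives have a fitted effect of over 15% in size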
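FRET biosensor (snurportin 1 IBB flanked by EYFP and cerulean), 50 nM, with compound 5 min, then 0.125 microM importin beta in PBS, 1 mM DTT, 0.02% Tween-20, 0.1% BSA. CFP/YFP ratio read after 45 min at room temperature; pre-read flags interference.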
GLA inh pH 4.5: blocks human alpha-galactosidase A at pH 4.5. activity change, negative = inhibition, % at 105 µM. purified enzyme, 4-MU-alpha-Gal fluorescence, pH 4.5. P06280. 230,000 tested, under 10 active; inconclusive = small, poorly fitted or top-dose-only inhibition, or a rising curve; inactive = flat fitted curve, though single readings scatter; no compound was filed as active;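 further: 0% = full activity with enzyme and -100% = basal without enzyme; dose as in the result columns while the protocol names 77 µM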
Target sequence (P06280 whole entry, looked up): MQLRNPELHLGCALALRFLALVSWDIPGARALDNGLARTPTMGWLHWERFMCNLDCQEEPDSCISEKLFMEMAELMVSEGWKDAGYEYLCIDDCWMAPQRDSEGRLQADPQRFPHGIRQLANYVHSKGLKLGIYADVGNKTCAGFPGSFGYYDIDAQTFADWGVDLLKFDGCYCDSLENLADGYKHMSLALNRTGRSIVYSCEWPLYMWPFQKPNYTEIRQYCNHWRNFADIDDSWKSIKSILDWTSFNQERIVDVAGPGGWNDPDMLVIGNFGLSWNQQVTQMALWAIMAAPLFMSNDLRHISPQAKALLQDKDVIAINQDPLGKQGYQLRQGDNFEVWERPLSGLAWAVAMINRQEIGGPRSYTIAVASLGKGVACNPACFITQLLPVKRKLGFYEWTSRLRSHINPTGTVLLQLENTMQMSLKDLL
Rango release inh: inhibition of RanGTP-driven Rango-importin beta dissociation; O95149+P62826; Biochemical FRET Rango-importin beta, RanGTP-induced dissociation; Potency, µM (titrated, usually from 46.1 µM), for the others: top-dose activity change, negative = inhibition; 340,000 compounds, 0.071% hits; active means falling FRET ratio curve, often poorly fitted, with flat reads before Ran was added; inconclusive means other falling curves, or compound fluorescence or quenching; inactive means flat or rising ratio curve;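 further: potency means the concentration at half of the fitted maximal effect; % of control where 0% means no effect; nearly all actives have a fitted effect of over 45% in size; -100% = wells without RanGTP and RCC1; the record marks most hits as doubtful in a second field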
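Two FRET readings bracket the reaction: one 5 min after compound meets Rango–importin beta, another 45 min after RanGTP-RCC1 (0.6 uM Ran, 0.2 uM RCC1, 2 mM GTP) is added. Only the second defines inhibition.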
Numbers without * were called inactive; u = inconclusive; x = no result given; & = joins results of further samples.

smiles	miR-21 reporter	Rango-impB inh	GLA inh pH 4.5	Rango release inh
C[N+](C)(C)CCCN1C(=O)CCCC1=O	0.6%	2.0%	-21.9	15.9%
COc1ccc(-c2nc(N)ncc2-c2ccccc2OC)c(O)c1	7.2%	2.4%	x	-5.8%
CC(Sc1n[nH]c(=O)[nH]c1=O)C(=O)OCc1ccccc1 (stereo not given)	-15.3%	-1.8%	-3.7	-14.4%
Cc1ccc([N+](=O)[O-])cc1Nc1nc(N2CCOCC2)nc(N2CCOCC2)n1	-8.8%	-0.2%	-1.4	14.9%
CC(C)(C)NC(=O)CN(CCN1CCOCC1)C(=O)CNS(=O)(=O)c1ccc(Cl)cc1	-1.3%	-2.3%	x	-5.2%
CCOC(=O)C1CCCN(c2c(NCCC(C)C)c(=O)c2=O)C1 (stereo not given)	-3.0%	0.0%	-5.5	0.9%
O=C(NCC1CCCCC1)c1cc([N+](=O)[O-])ccc1N1CCOCC1	-3.3%	-0.8%	-22.3	-13.4%
CCOC(=O)CNC(=O)COc1coc(CN2CCN(Cc3ccccc3)CC2)cc1=O	0.4%	-0.5%	x	-14.6%
Cc1ccc(S(=O)(=O)NCc2csc(C)n2)c(C)c1	-1.6%	-0.3%	1.4	-12.8%
COCCCNC(=O)c1c(NC(=O)C2COc3ccccc3O2)sc2c1CCCC2 (stereo not given)	1.6%	2.9%	10.4	0.6%
CN(C)c1ccc(-c2noc(-c3ccccc3O)n2)cc1	-51.2%	4.8%	1.7	-4.0%
O=C(O)c1cc(=O)[nH]c2c(Cl)cccc12	-1.6%	0.0%	3.5	3.1%
O=C(Oc1ccccc1C(=O)N1CCOCC1)c1cccc(Br)c1	-0.1%	5.4%	6.2	-8.2%
O=C(CCc1nc2ccccc2c(=O)[nH]1)NNC(=O)c1ccc(Cl)cc1	x	u	x	u
Cc1onc(C(=O)N2CCN(C(c3ccccc3)c3ccccc3)CC2)c1[N+](=O)[O-]	-0.5%	-6.9%	-0.4	-6.4%
O=C(N/N=C/c1c[nH]c2ccccc12)c1cc(Cl)ccc1O	-23.7%	-3.4%	x	-0.8%
O=C(CCN1C(=O)NC2(CCCC2)C1=O)Nc1cccc(S(=O)(=O)N2CCOCC2)c1	x	-1.4%	x	5.2%
CCOC(=O)C1=NNC2C(=O)N(Cc3ccccc3)C(=O)C12 (stereo not given)	-0.3%	-0.9%	-7.8	-4.2%
COc1ccc(Cl)cc1NC(=O)c1cc(C)no1	0.3%	1.2%	x	-4.6%
O=C1CSC(=S)N1N=Cc1ccc(Cl)cc1Cl	x	0.0%	x	-5.5%
CCCC/C(O)=C1\C(=O)CCCC1=NCCc1c(C)[nH]c2ccc(OC)cc12	10.7%	0.0%	-0.8	-12.1%
O=C(Cn1c(=O)[nH]c2ccccc2c1=O)Nc1ccc2c(c1)OCCO2	1.1%	-6.1%	x	-14.5%
CCN1CCN(CCCNC(=O)c2cc3cc4ccc(OC)cc4nc3o2)CC1	-4.2%	5.7%	u	-11.8%
CC1(C)N=C(c2ccccn2)C(C)(C)N1O	0.2%	3.9%	4.6	-12.1%
Cn1c(N)c(S(=O)(=O)NCc2ccccc2Cl)c(=O)n(C)c1=O	-1.1%	0.8%	1.5	1.8%
Cc1c(C)n(-c2ccccc2)c2ncnc(NCCN(C)C)c12	-3.9%	2.8%	x	-14.8%
Cc1nc(-c2ccc(Cl)cc2)sc1C1(C)CC(c2ccccc2)=NO1 (stereo not given)	x	0.2%	x	4.2%
CC1CCCN(c2oc(-c3cccc4ccccc34)nc2C#N)C1 (stereo not given)	-3.7%	0.5%	u	24.5%
CC(=O)C1=C(C)NC(SCC(=O)c2ccc(Cl)cc2)=C(C#N)C1CC(C)C (stereo not given)	-2.2%	u	-2.1	u
COc1cc(-c2noc(C)c2C(=O)NCCCN2CCOCC2)cc(OC)c1OC	x	2.4%	x	4.3%
Cc1cc(C)cc(NCC(=O)Nc2c(C)cccc2C)c1	-3.3%	0.1%	-5.5	2.2%
CCN(CC)c1ccc(/C=C(\C#N)C(=O)NCc2ccco2)cc1	-28.3%	x	-14.2	x
CCOC(=O)C(=O)/C(=C\N(C)C)c1onc(-c2ccccc2Cl)c1C(=O)OC	0.0%	2.3%	0.4	16.1%
COc1ccc(S(=O)(=O)n2cnc(C)c2)cc1	-1.5%	-0.4%	-9.0	-6.4%
CC(C)n1nnnc1SCC(=O)NCc1ccc2c(c1)OCO2	-2.7%	3.9%	15.0	-10.8%
CN(C(=O)CSc1nnc(-c2ccco2)n1Cc1ccccc1)C1CCS(=O)(=O)C1 (stereo not given)	x	1.8%	x	6.3%
CCC(CC)NC(=O)/C=C/c1cccc([N+](=O)[O-])c1	-9.7%	0.8%	-8.1	1.8%
CCOc1ccc(N)cc1OC	-8.8%	u	-14.4	-14.5%
COc1ccc(N2CC(C(=O)N[C@@H](C)C(=O)NCCc3ccccc3)CC2=O)cc1 (stereo not given in full)	-4.5%	0.4%	x	4.6%
c1ccc(Cn2c[n+](Cc3ccccc3)c3ccccc32)cc1	19.2%	-1.4%	x	2.5%
CS/C(=N/S(=O)(=O)c1ccc(C)cc1)c1ccccc1	-8.6%	3.6%	7.7	1.9%
COC(=O)c1ccc(CNC(=O)Cn2cnc(C(=O)Nc3ccc(C)c(C)c3)n2)cc1	x	0.0%	x	-13.2%
Cc1ccc2cc(C)c(N3CCC(C)CC3)nc2c1	-5.9%	5.0%	7.5	2.6%
CC1(C)CC(=O)C(C2C3=C(CC(C)(C)CC3=O)Oc3ccc4ccccc4c32)C(=O)C1 (stereo not given)	-1.6%	-2.9%	4.0	u
CSc1cccc(NS(=O)(=O)c2ccc3c(c2)oc(=O)n3C)c1	-1.6%	0.0%	-0.3	-9.3%
Cc1nnc(SC(C)C(=O)Nc2c(C)n(C)n(-c3ccccc3)c2=O)n1N (stereo not given)	-1.1%	-4.7%	4.3	-9.0%
COc1ccc2[nH]c(C(=O)Nc3ccccc3Cl)cc2c1	-23.6%	-0.5%	-2.1	-8.2%
COc1ccc(C)cc1NC(=O)CCNS(=O)(=O)c1ccc2c(c1)CCC(=O)N2	-2.1%	-0.2%	x	-8.5%
O=C(CSCc1ccccc1)N1CCN(C(=O)c2ccco2)CC1	-31.2%	0.2%	-10.7	12.8%
O=C(CSc1ncnc2c1nnn2Cc1ccc(F)cc1)NCC1CCCO1 (stereo not given)	12.0%	1.4%	x	13.0%
Cc1ccc(N(C(=O)c2sc(C)nc2C)C(C(=O)NCc2ccco2)c2ccccc2)cc1 (stereo not given)	10.0%	7.4%	-8.7	1.8%
COC(=O)c1ccc(Oc2nc(N(C)C)nc(N3CCOCC3)n2)cc1	-0.5%	-0.7%	-6.6	0.9%
O=[n+]1c2c(n([O-])c3c1CCCC3)CCCC2	0.5%	4.7%	0.0	8.1%
Cc1ccc(N=Nc2ccc(O)c(/C=N\NC(=O)c3ccc(N)cc3)c2)cc1C	-9.9%	0.3%	-1.2	-0.8%
COc1ccc(NC(=O)C2CCC(CNS(=O)(=O)c3cccs3)CC2)cc1OC (stereo not given)	-2.2%&-2.3%	-0.1%	-4.0	8.5%
CCC(Cc1ccccc1)NC(=O)Cn1cccc1C(=O)c1ccccc1 (stereo not given)	0.6%	1.0%	x	10.0%
Cc1ccc(C)c(S(=O)(=O)NCC(c2ccco2)N2CCc3ccccc3C2)c1 (stereo not given)	x	-2.6%	x	u
CN(CC(=O)Nc1ccc(S(=O)(=O)N(C)C)cc1)Cc1ccc(C(F)(F)F)cc1	5.5%	-1.4%	-9.9	13.5%
O[C@@H]1CN(Cc2ccccc2Cl)CC[C@H]1N1CCOCC1	3.4%	-1.1%	x	-6.8%
NS(=O)(=O)c1ccc(CCNC(=O)c2ccco2)cc1	-0.3%	0.1%	-5.6	10.1%

Continuation.
smiles	miR-21 reporter	Rango-impB inh	GLA inh pH 4.5	Rango release inh
CCCn1c(O)c(N=NC(=O)c2ccco2)c2ccccc21	-3.0%	-0.2%	-20.7	16.4%
COc1ccc(-n2nnnc2-c2cccc(OC)c2)cc1	13.2%	0.9%	-10.7	-5.0%
C=CC[C@H](CC(=O)N[C@H](CO)Cc1ccccc1)C(=O)N[C@@H](COC(=O)[C@@H](CC=C)CC(=O)OC(C)(C)C)Cc1c[nH]c2ccccc12	x	-2.3%	x	-8.9%
O=C1OC=NC1=Cc1ccccc1	x	u	x	-6.3%
O=C1CCCN1CC1CCCN(Cc2nc(COc3ccccc3)no2)C1 (stereo not given)	1.4%	-2.4%	-4.3	-5.3%
CCNc1nc(NCC)nc(N(C#N)CCOc2ccccc2)n1	-13.6%	8.2%	6.1	2.7%
CCOc1ccc(-n2c(Cc3cc(=O)[nH]c(=O)[nH]3)nnc2SCC(=O)OC)cc1	-2.1%	-0.8%	11.4	7.6%
CC1CCN(C(=O)COC(=O)c2ccc([N+](=O)[O-])o2)CC1	x	-2.7%	x	2.1%
CC(C)(C)Nc1ncnc2c1cnn2-c1ccccc1	-5.9%	-0.1%	0.4	17.2%
CCC(C)c1ccccc1NC(=O)C(C)OC(=O)CN1C(=O)NC(C)(C)C1=O (stereo not given)	x	u	x	-1.2%
Cc1noc(C)c1COC(=O)c1ccc(F)c(S(=O)(=O)N2CCCCC2)c1	-1.2%	0.1%	-7.8	6.4%
COc1ccc(NC(=O)C(c2cc3c(cc2[N+](=O)[O-])OCO3)N2CCN(C=O)CC2)cc1 (stereo not given)	-14.9%	1.2%	-3.2	12.1%
COc1cc(/C=N\NC(=O)c2ccc(Cn3nc([N+](=O)[O-])c(Cl)c3C)o2)ccc1O	1.4%	-5.2%	-6.5	3.5%
CC1COc2ccccc2N1S(=O)(=O)c1ccccc1 (stereo not given)	-2.8%	-2.5%	-18.2	16.6%
C=CCn1c(SCC(=O)OC)nc2sc3c(c2c1=O)CCN(C)C3	0.2%	x	8.1	x
C[C@]12CC[C@@H]3c4ccc(O)cc4CC[C@H]3[C@@H]1CC[C@@H]2OC(=O)CCC(=O)O	-11.1%	-1.8%	3.8	-2.4%
CC1=C(C(=O)N2CCCC(CCC(=O)NCc3ccccc3F)C2)OCCO1 (stereo not given)	1.0%	0.1%	6.0	-6.1%
CC(C)(C)NC(=O)CCc1nnc(Cc2c[nH]c3ccccc23)o1	-0.6%	-4.0%	5.5	-13.9%
CCN(CC)C(=O)Cn1c(=O)n(CCCC(=O)NCc2ccccc2)c(=O)c2sccc21	-4.5%	-1.8%	1.6	19.3%
C=CCn1c(N)c(C(=O)OC(C)CC)c2nc3ccccc3nc21 (stereo not given)	0.2%	u	u	u
CN(C)S(=O)(=O)c1cccn1-c1ncc(C(F)(F)F)cc1Cl	-5.4%	-0.8%	1.2	8.9%
O=C(CN(C(=O)c1cccc([N+](=O)[O-])c1)C1CCCCC1)Nc1ccc(Cl)c([N+](=O)[O-])c1	-1.5%	3.2%	-2.4	-5.6%
O=S(=O)(c1ccc(N2CCN(CCO)CC2)nc1)N1CCOCC1	x	1.6%	x	15.8%
COc1ccc(NC(=O)CSc2ncnc3c2sc2ccccc23)c(OC)c1	-1.9%	5.9%	2.0	-7.3%
O=C(CCC(=O)N(CC(=O)NC1CCCC1)c1cccc(F)c1)Nc1nccs1	-0.1%	-2.0%	x	2.8%
CCOC(=O)c1ccc(NC(=O)CCn2c(=O)oc3ccccc32)cc1	-7.1%&2.3%	-0.1%	x	-1.7%
CCCCC(=O)O[C@H]1CC[C@H]2[C@@H]3CCc4cc(O)ccc4[C@H]3CC[C@]12C	-6.6%	-6.3%	x	3.4%
COc1ccc(C2CC(=O)C3=C(C2)Nc2ccccc2N(C(=O)C2CC2)C3c2cccnc2)cc1OC (stereo not given)	-10.5%	5.0%	5.2	46.0%
CC1CCN(C(C)C(=O)Nc2cc(S(=O)(=O)N3CCCCC3)ccc2Cl)CC1 (stereo not given)	x	-2.2%	x	-6.5%
CC1CCc2c(sc(/N=C/c3cccnc3)c2C(N)=O)C1 (stereo not given)	-21.2%	2.8%	10.6	-13.8%

The list is partial (hit frequency here may not be typical).
